# gsp agonist – qHTS for Agonist of gsp, the Etiologic Mutation Responsible for Fibrous Dysplasia/McCune-Albright Syndrome: qHTS. Potency, µM (top dose mostly 76.9 µM), for inactives: at the top dose activation (cAMP increase), actives largely listed as activators. hit rate 0.13% among 340,000. gsp mutant cells, cAMP HTRF, 30 min; control for the full effect not named in the record; active = well fitted activation curve with a large enough effect; inconclusive = small, poorly fitted or top-dose-only effect, or another doubt; inactive = no such curve, though single readings can be large or run the other way; cell line not stated here;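 note: phosphodiesterase inhibitor Ro 20-1724 added with compounds to block cAMP breakdown; potency is the fitted concentration of half-maximal effect; nearly all actives have a fitted effect of over 60% in size; about a fifth of the inactives were tested at one dose only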
#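 Cells stably selected in G418 were plated at 2000/well, grown 16-24 hr, then given compounds in DMSO with the PDE inhibitor […] (300 uM solution added) for 30 min at 37C; cAMP was read by HTRF.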
# Menin-MLL FL inh – qHTS Assay for Inhibitors Targeting the Menin-MLL Interaction in MLL Related Leukemias: Competition With Fluorescein Labeled MLL-derived Peptide; 290,000 tested, under 10 active; AID 1766, 2009; Fluorescence polarization, fluorescein-MLL peptide displacement from menin; FP activity change, % at 61.4 µM; inconclusive = falling polarisation curve, or a change in total fluorescence; inactive = total fluorescence flat and polarisation flat or rising; no compound was filed as active; the % refers to the polarisation; negative = inhibition;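 note: % of control where 0% means no effect; inhibitors lower the polarisation; unlabelled MLL peptide was the positive control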
# ClpP mod – qHTS Assay for Activators of ClpP; ATP-dependent Clp protease proteolytic subunit (Bacillus subtilis (strain 168)), P80244; purified B. subtilis ClpP, FRET peptide cleavage, 20 min; Potency, µM (titrated, usually from 57.5 µM), without a hit: at the highest dose activity change, negative = active; hit rate 1.9% among 340,000; AID 651965, 2013; active = well fitted falling curve with a large enough effect; inconclusive = small, poorly fitted or top-dose-only effect; inactive = no such curve, though single readings can be large or run the other way; note: potency is the fitted concentration of half-maximal effect; the source files actives as falling curves though it sought activators and does not explain the sign; nearly all actives have a fitted effect of over 65% in size; many hits overshoot -100%
# Target sequence (P80244 whole entry, looked up): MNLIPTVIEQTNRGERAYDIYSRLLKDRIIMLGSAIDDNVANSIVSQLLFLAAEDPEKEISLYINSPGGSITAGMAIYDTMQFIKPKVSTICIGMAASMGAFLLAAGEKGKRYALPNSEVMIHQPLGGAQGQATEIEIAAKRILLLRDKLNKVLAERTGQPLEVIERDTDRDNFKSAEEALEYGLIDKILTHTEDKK
#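 ClpP 10 microg/mL final, pH 8 Tris/KCl buffer with BSA, glycerol, Tween-20; compound pinned in; FRET-FV substrate; RT 20 min; Ex320/Em430; ΔFRET vs ADEP 5.8 microM, DMSO, no enzyme.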
# CtBP-E1A inh – qHTS Assay for Inhibitors of the CtBP/E1A Interaction; CtBP / adenovirus E1A interaction (AlphaScreen); AlphaScreen GST-E1A/His-CtBP binding, 1536-well; hits give low values; control for the full effect not named in the record; activity change, % (concentration not given with the values); hit rate 0.49% among 340,000; AID 651724, 2012; in the data active means activity change below about -65%; inconclusive means about -30% to -65%; inactive means above about -30%; note: % is set by controls: 0 for no effect and ±100 for the full control effect
#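 Homogeneous bead-based format: GST-tagged E1A captured on glutathione donor beads, His-tagged CtBP on nickel acceptor beads; compounds precede bead addition by 2 h at 37 °C.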
# gsp antag – qHTS for Antagonists of gsp, the Etiologic Mutation Responsible for Fibrous Dysplasia/McCune-Albright Syndrome: qHTS; Potency, µM (top dose mostly 76.9 µM), for the others: at the top dose activity change, negative = inhibition, hits mostly inhibitors; gsp-mutant cells, cAMP HTRF, 30 min; control for the full effect not named in the record; hit rate 0.4% among 340,000; active = falling curve of any shape with a large fitted effect; inconclusive = falling curve, mostly with a smaller effect; inactive = flat or rising curve; cell line not stated here;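 note: intracellular cAMP measured with PDE inhibitor Ro 20-1724 present during compound exposure; potency is the fitted concentration of half-maximal effect; % is set by controls: 0 for no effect and ±100 for the full control effect; nearly all actives have a fitted effect of over 65% in size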
#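 HTRF cAMP measurement after 30 min RT detection following 30 min, 37C compound treatment alongside […] (added as 300 uM solution) in G418-selected cells seeded at 2000/well and grown 16–24 h.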
# TRPV1 potentiator – HTS Assay for Compounds that Act as Potentiators of the Vanilloid Receptor 1; hit rate 0.02% among 320,000; TRPV1-expressing cells, Fluo-8 calcium influx, capsaicin EC20 potentiation; host cell line not named in the record; control for the full effect not named in the record; AID 540277, 2011; potentiation, % at 8.33 µM; active means potentiation above 80%; inconclusive means 30% to 80%; inactive means below 30%; note: 0% is about no effect
# Target sequence (Q8NER1 whole entry, looked up): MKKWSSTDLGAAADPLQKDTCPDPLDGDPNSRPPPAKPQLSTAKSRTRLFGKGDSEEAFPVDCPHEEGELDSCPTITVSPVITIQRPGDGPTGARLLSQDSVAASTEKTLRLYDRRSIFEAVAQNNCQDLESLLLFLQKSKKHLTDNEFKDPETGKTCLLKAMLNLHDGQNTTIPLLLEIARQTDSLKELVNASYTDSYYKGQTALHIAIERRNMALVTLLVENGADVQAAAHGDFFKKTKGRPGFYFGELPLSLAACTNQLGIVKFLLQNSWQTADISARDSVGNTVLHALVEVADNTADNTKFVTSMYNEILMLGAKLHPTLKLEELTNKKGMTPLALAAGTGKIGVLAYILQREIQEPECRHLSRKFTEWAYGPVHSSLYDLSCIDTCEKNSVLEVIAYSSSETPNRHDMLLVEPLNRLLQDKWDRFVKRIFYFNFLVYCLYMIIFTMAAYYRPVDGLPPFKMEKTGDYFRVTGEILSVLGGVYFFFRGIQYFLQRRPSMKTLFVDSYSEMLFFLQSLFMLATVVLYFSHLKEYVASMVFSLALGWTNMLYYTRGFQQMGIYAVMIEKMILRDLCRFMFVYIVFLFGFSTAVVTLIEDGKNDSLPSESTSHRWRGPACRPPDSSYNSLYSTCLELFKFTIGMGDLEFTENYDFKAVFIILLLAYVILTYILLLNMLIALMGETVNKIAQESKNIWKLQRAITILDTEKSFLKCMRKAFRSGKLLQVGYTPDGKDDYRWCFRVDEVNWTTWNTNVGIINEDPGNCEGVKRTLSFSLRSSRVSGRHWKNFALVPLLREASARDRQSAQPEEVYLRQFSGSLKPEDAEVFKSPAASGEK
#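 Fluo-8 calcium influx in TRPV1-expressing cells, kinetic read (ex 480/em 520 nm). Compound added and read 3 min for agonist activity, followed by capsaicin at EC20 final and 2 min further read for enhancement.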
# Sfp PPTase inh – qHTS Assay for Inhibitors of Bacillus subtilis Sfp phosphopantetheinyl transferase (PPTase); Biochemical Sfp PPTase activity, qHTS; 4'-phosphopantetheinyl transferase ffp (Bacillus subtilis), Q9F4F7; hit rate 3.5% among 310,000; Potency, µM, inactives show max response, negative = inhibition, actives largely listed as inhibitors; active = well fitted inhibition curve with a large enough effect; inconclusive = small, poorly fitted or top-dose-only effect, or another doubt; inactive = no such curve, though single readings can be large or run the other way;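 note: the enzyme is Sfp with the accession as filed and its product quenches rhodamine fluorescence; potency is the fitted concentration of half-maximal effect; 0% = enzyme reaction without inhibitor and -100% = no enzyme wells; top concentration of the series not given in the record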
#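 Fluorescence-quenching assay with 15 nM Sfp, 5 uM rhodamine-CoA and 12.5 uM BHQ-2-labelled ybbR peptide in pH 7.6 Hepes/MgCl2 buffer. Enzyme was pre-incubated with compound for 15 min at room temperature. Rate was taken from the 30-min fluorescence change (525/598 nm).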
# * marks the source's active call; other numbers are inactive results; ? = inconclusive; . = not tested or not shown; [ ] = remark or other dose.
molecule	gsp agonist	Menin-MLL FL inh	ClpP mod	CtBP-E1A inh	gsp antag	TRPV1 potentiator	Sfp PPTase inh
O=CN1CCN(C(=O)c2ccccc2Cl)CC1	2%[15.4 µM]	-0.1	2.7%	5	2%	-7	10%
COC(=O)COc1ccc(=O)n(-c2ccccc2)n1	-25%	4.1	-0.7%	6	3%	3	15%
Cc1nc(SCc2ccc(Cl)c(Cl)c2)n[nH]1	0%	-6.1	1.3%	.	-7%	-7	13%
COc1ccc(O)c(C(=O)c2cnn(S(=O)(=O)c3ccc(C)cc3)c2)c1	2%	.	-11%	-5	-6%	-12	.
Cc1ccc(CNC(=O)CN(Cc2cccs2)C(=O)C2(C)CC(=O)N=C3C=CC=CN32)cc1 (stereo not drawn)	27%[15.4 µM]	2.0	21%	-4	5%	9	2%
CCCc1nc2ccccc2c(=O)n1CCc1ccccc1	10%[15.4 µM]	3.2	-0.8%	2	-25%	-5	0%
OB(O)c1ccc(B(O)O)cc1	.	-1.1	-1.5%	.	.	.	20%
CC(NC(=O)c1ccccc1NC(=O)CN1CCc2ccccc2C1)c1ccccc1 (stereo not drawn)	-6%	2.6	.	-2	-22%	6	-12%
COc1ccc(C(=O)CCN2CCN(c3ccccc3F)CC2)cc1	-54%[inhibitor]	3.9	-0.7%	-3	-23%	-19	50µM*
COc1ccc(OC)c(S(=O)(=O)N(C)CC(=O)N2CCOCC2)c1	12%	0.4	-3.1%	2	16%	13	8%
COc1cc(S(=O)(=O)Nc2ccc(C)cc2)ccc1NC(=O)c1ccncc1	?	6.1	-0.4%	-2	-6%	3	-11%
CCCOc1ccc(N2CC(C(=O)Nc3ccccn3)CC2=O)cc1 (stereo not drawn)	-2%	-1.3	1.5%	-2	1%	.	-2%
COc1ccc(NS(=O)(=O)c2ccc3oc(=O)c4[nH]c(=O)c(=O)n(C)c4c3c2)cc1	19%	0.2	20µM*	.	3%	5	24%
CCOC(=O)c1nnc(-c2ccccc2)nc1Sc1c(Cl)cccc1Cl	28%	-1.6	0.8%	-4	-4%	-3	-7%
OCCOCCn1c(C(CO)Nc2nc(-c3ccccc3Br)cs2)nc2ccccc21 (stereo not drawn)	-19%	.	0.8%	-4	-1%	.	.
Nc1ccnn1Cc1ccc(Br)s1	-7%	-0.1	-0.7%	-11	5%	-27	15%
CCN(CC(=O)NCc1cccs1)C(=O)c1cc(S(=O)(=O)N2CCOCC2)ccc1C	-32%[inhibitor]	-0.8	-9.7%	1	-1%	-20	8%
CCOC(=O)C1CN(S(=O)(=O)c2ccc(C)cc2)CCN1S(=O)(=O)c1ccc(C)cc1 (stereo not drawn)	-47%[inhibitor]	3.2	0.7%	4	-4%	-2	17%
C#CCOCCOCCOCCNc1nc(N2CCN(C(=O)[C@H](Cc3cc4ccccc4[nH]3)n3cc([C@@H](N)C(C)CC)nn3)CC2)nc(N2CCN(C(=O)[C@H](CCCCN)n3cc([C@@H](N)CO)nn3)CC2)n1 (stereo partly drawn)	.	-0.8	.	.	.	17	1%
O=C1COc2ccccc2N1Cc1ccccc1Cl	-1%	2.7	-5.0%	14	-31%	18	1%
Cc1cc(N2CCCC2)nc2ccc(NC(=S)NCCCN3CCC(C)CC3)cc12	7%[15.4 µM]	-0.3	.	-5	11%	-6	10%
CN(CC(=O)Nc1cccc(F)c1)C(=O)COc1cccc2c1OC(C)(C)C2	-1%[15.4 µM]	.	2.4%	1	8%	-1	25%
COc1ccc(CNC(=O)[C@@H](NC(=O)C2CCN(S(=O)(=O)c3ccccc3)CC2)C(C)C)cc1	-32%[inhibitor]	.	-0.5%	4	-16%	-3	8%
CC1CCCCC1NC(=O)COC(=O)c1ccc(N(C)C)cc1 (stereo not drawn)	2%	0.4	1.7%	4	-16%	6	-3%
COc1cc(OC)c(C(=O)Nc2ccncc2)cc1OC	16%	-10	-2.7%	-21	2%	-2	8%
CN(C)c1cccc(F)c1C(=O)NC(=O)Nc1ccc(Cl)cc1	1%	.	-17%	-2	-2%	.	.
Cc1nn(C)cc1CN(C)C(=O)C1CCC(=O)N(CCc2cccc(F)c2)C1 (stereo not drawn)	-45%[inhibitor]	.	-2.9%	-2	.	.	.
Cc1cc(C)nc(NC(=NCCc2c[nH]c3ccccc23)NC(=O)Nc2ccc(Cl)cc2)n1	-1%	2.0	-3.1%	-9	-4%	-34	17%
Cc1cc(C)cc(OCC(=O)Nc2ccc(-n3cnnn3)cc2)c1	4%	.	-0.7%	.	13%	-3	.
COc1ccc(NS(=O)(=O)c2cc([N+](=O)[O-])ccc2NN=Cc2ccccc2OCC(=O)O)cc1	-44%[inhibitor]	.	1.5%	-15	8%	.	.
COc1cccc(-c2n[nH]c3c2CCC3)c1	-46%[inhibitor]	-1.4	.	6	1%	-5	15%
C[C@@H]1[C@@H](Sc2ccccc2)CC(=O)O[C@@H]1c1ccc(-c2ccccc2)cc1	23%	-4.1	0.3%	5	-18%	.	-4%
CC1CN(C(=S)Nc2cccc(Cl)c2)CC(C)O1 (stereo not drawn)	8%	-8.5	0.3%	5	5%	17	9%
CC(=O)c1ccc(S(=O)(=O)Nc2ccc(-c3ccc4nncn4n3)cc2)cc1	5%[15.4 µM]	.	-3.2%	-15	-9%	-6	.
CCN1C(=O)c2cccc3c(S(=O)(=O)Nc4ccccc4O)ccc1c23	4%	.	.	-19	-8%	5	-1%
CC(=O)Nc1ccc(SCC(=O)c2cc(C)n(-c3ccccc3F)c2C)cc1	6%	2.2	-0.7%	-10	5%	-7	?
COc1cc2c(cc1OC)[C@@H](NC(=O)COc1ccccc1)[C@H](OCc1ccccc1)C2	.	.	0.9%	-8	-6%	.	.
Cc1ccc(-n2c(CNc3ccc(F)cc3)nnc2SCC(=O)N2CCCC2)cc1	15%	-0.5	-1.8%	-11	-6%	-17	-18%
N#Cc1nc(Cl)c(Cl)c(NN)c1Cl	6%[15.4 µM]	4.7	0.5%	1	-29%	-7	1%
c1ccc(-c2nnc(CN3CCCc4ccccc43)o2)cc1	4%	?	-13%	5	-2%	3	14µM*
Oc1ccc(Cl)cc1CNCC1CCCO1 (stereo not drawn)	-8%	-0.4	-0.5%	6	-10%	-7	5%
CCOC(=O)c1cnc(Nc2nc3ccccc3o2)nc1CSC(=S)N1CCCCC1	-20%	9.3	0.7%	-16	-8%	20	0%
COC(=O)c1ccccc1NC(=S)N1CCOCC1	?	3.2	-5.8%	.	9%	18	17%
C/C(=N/NC(=O)c1cc(-c2ccccc2)nc2c(Cl)cccc12)c1cccnc1	13%	-1.4	-20%	-5	2%	-14	0%
COCCN(C(=O)COC(=O)CSc1ccccc1)c1c(N)n(Cc2ccccc2)c(=O)[nH]c1=O	-27%[15.4 µM]	.	.	-21	8%	?	.
COc1ccc(/C=C(\NC(=O)c2ccccc2)C(=O)NC2CCS(=O)(=O)C2)cc1 (stereo not drawn)	?	3.1	-0.9%	11	-11%	3	14%
O=C(Nc1cccc(-c2cccc(Cl)c2)c1)C1CCN(Cc2ccc(CO)o2)CC1	51%	-0.3	0.6%	-1	-2%	-5	-20%
Cn1nc(-c2ccc(Cl)cc2)cc1NC(=O)Nc1ccccc1	-13%[15.4 µM]	0.5	.	8	-10%	-5	0%
O=C(N=c1nc2ccccn2s1)c1ccccc1	21%	1.2	-8.8%	9	-6%	26	-3%
CC(C)CCC(C(=O)O)C(C)CC(=O)Nc1ccn(-c2ccccc2)n1 (stereo not drawn)	-22%	2.5	-1.7%	8	3%	15	8%
O=C(NCC(=O)N(c1cccnc1)C(C(=O)NC1CCCC1)c1cccs1)c1cccs1 (stereo not drawn)	-3%	-1.5	0.6%	.	5%	25	12%
CCOC(=O)c1ccc(N2C(=O)CC(Sc3nc(O)c(CC)c(=O)[nH]3)C2=O)cc1 (stereo not drawn)	9%	-1.5	-2.9%	-2	-12%	4	?
O=C(CN(C(=O)c1csnn1)c1cccc2c1CCCC2)NCc1ccccc1	6%[15.4 µM]	-3.7	-1.6%	18	-8%	3	5%
Cc1ccc(S(=O)(=O)N(C)C)cc1NC(=O)C1CCCN(C(=O)c2ccc(Cl)cc2)C1 (stereo not drawn)	18%[15.4 µM]	.	.	-2	-9%	3	.
S=C(NC1CCCCC1)N1CCOCCOCCN(C(=S)NC2CCCCC2)CCOCC1	6%[15.4 µM]	-0.9	.	-3	-2%	19	7%
COc1ccc(S(=O)(=O)NCc2cccnc2)c2ccccc12	16%	5.0	.	0	-6%	-13	11%
CCOC(=O)C1=C(C)N(c2nonc2NC(C)=O)C(N)=C(C#N)C1c1ccccc1F (stereo not drawn)	0%	0.9	1.2%	1	?	1	16%
CCOC(=O)c1c(Cl)c(C)nn1-c1nc(OC)cc(OC)n1	-17%	5.6	-6.2%	-18	11%	-11	10%
Cc1nc2ccc(C(=O)N3CCN(Cc4ccccc4)CC3)cc2[nH]1	18%[15.4 µM]	.	.	-3	5%	4	6%
O=C(NNC(=O)C1CC=CCC1C(=O)O)c1ccc(Cl)cc1 (stereo not drawn)	9%[15.4 µM]	1.1	.	.	13%	-10	7%
O=C(COc1ccc([N+](=O)[O-])cc1)NCc1ccccc1	-1%	3.4	-0.7%	-10	10%	-25	-1%
Cn1nc(C(F)(F)F)cc1Oc1ncc(C(F)(F)F)cc1Cl	3%[15.4 µM]	0.0	.	-22	.	-10	16%
